BJeLR lethal: kills HRASV12-expressing BJeLR cells | BJeLR (HRASV12) viability, CellTiter-Glo ATP luminescence, 48 h; reference of the scale not given here | inhibition, % (concentration not given with the values) | 0.17% of 300,000 active | AID 1554;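 active = replicate mean above 50%; inconclusive = above 50% but judged a plate artefact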;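 also: 50 nL library stock added to about 25 µL; numbers are from one replicate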
Sa ugtP lethal: growth inhibition of S. aureus ugtP deletion strain; 0.54% of 330,000 active; growth inhibition, % (no concentration beside the values); S. aureus RN4220 ugtP deletion, OD600 growth, 16 h; some inactives read as strong as hits;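 active = z-score under -3 and OD600 up to 0.15 on both plates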;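 also: plate controls were untreated wells for no effect and antibiotic for full effect; wells of about 80 µL received 100 nL stock; the first replicate is given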
Bead autofluor: compound fluorescence in toxin protease inhibitor counterscreen; compound autofluorescence counterscreen, microsphere flow cytometry; active compounds read high; AID 624483; 3.1% of 360,000 active; fluorescence intensity (no concentration beside the values);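 active = at least 3 SD above the mean of all compounds, about 16000 in these data; inconclusive = too few beads counted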;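 also: 100 nL of 1 mM stock went into each well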
RN4220 kill: S. aureus RN4220 growth inhibition; OD600, 16 h; inhibition, % (test concentration not listed); 0.33% of 330,000 active; AID 1259311;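 active = z-score of -3 or lower and OD600 up to 0.18 on both plates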;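 also: plate controls were untreated cells for no effect and reference antibiotic for full effect; stock transfer was 100 nL into about 80 µL; one replicate is shown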
Mtb hypoxia rep: reduces hypoxia-regulated biosensor signal in M. tuberculosis. M. tuberculosis hypoxia-regulated fluorescent reporter, fluorescence. fluorescence inhibition, % (concentration not given with the values). 0.1% of 300,000 active. AID 1159583;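 active = 35 to 45% if threefold the growth effect, above 45% if 1.5-fold the growth effect; inactive = the rest, general growth blockers included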;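 also: wells of about 50 µL received 100 nL stock; 0% = vehicle wells and 100% = reference inhibitor wells; whole bacteria with a GFP reporter of the hypoxia response; strong numbers were not always called active; many hits fall short of the cut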
PrP 5UTR inh: suppresses PrP 5' UTR mRNA reporter expression. 0.35% of 340,000 active. inhibition, % (test concentration not listed). cell-based PrP 5' UTR mRNA reporter, plate reader. AID 488862;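 active = every replicate at 50% or more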;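 also: 0 = median of the neutral control wells; tested in H4 reporter cells; numbers are from one replicate; inactives centre near -14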
Mtb hypoxia rep growth: second read-out of Mtb hypoxia rep, no call of its own (marks repeat the call); growth inhibition, %; measured here: M. tuberculosis growth (absorbance);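 0% = vehicle and 100% = reference antibiotic; read after six days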
Numbers without * were called inactive.

O=C(Nc1cccc(Br)c1)c1cc(=O)c2ccccc2o1 was read as BJeLR lethal -13, Sa ugtP lethal -4, Bead autofluor 4434, RN4220 kill 5.5, Mtb hypoxia rep -5, PrP 5UTR inh -7 and Mtb hypoxia rep growth -7.
CCC1C(=O)n2nc(-c3ccccc3)cc2N=C1C (stereo not drawn) was read as BJeLR lethal 7, Sa ugtP lethal -8, Bead autofluor 9398, RN4220 kill 0.7, Mtb hypoxia rep -7, PrP 5UTR inh -120 and Mtb hypoxia rep growth -1.
Screening Cc1ccc(C(=O)NN=Cc2cc(C)n(-c3ccc(Br)cc3)c2C)cc1[N+](=O)[O-] returned Sa ugtP lethal -7, RN4220 kill -1.2, Mtb hypoxia rep 2 and Mtb hypoxia rep growth 0.
Screening Cc1cccc(NC(=O)COC(=O)CCc2ccc(S(=O)(=O)N3CCOCC3)cc2)c1C returned BJeLR lethal 5, Sa ugtP lethal 9, Bead autofluor 2598, RN4220 kill 11, Mtb hypoxia rep 2, PrP 5UTR inh -21 and Mtb hypoxia rep growth 0.
`COc1ccc(-c2ccnc3ncnn23)cc1` gave BJeLR lethal 1, Bead autofluor 4193 and PrP 5UTR inh -17.
Screening COC(=O)C(C)Sc1ccc2nnc(CCNS(=O)(=O)c3ccccc3)n2n1 (stereo not drawn) returned BJeLR lethal 0, Sa ugtP lethal 10, Bead autofluor 4808, RN4220 kill 0.2, Mtb hypoxia rep 4, PrP 5UTR inh 4 and Mtb hypoxia rep growth 2.
Cc1cccc(C=NNC(=O)c2cc(C3CC3)nc3ccccc23)n1 was read as Sa ugtP lethal 3, RN4220 kill 2.3, Mtb hypoxia rep 6 and Mtb hypoxia rep growth 0.
O=C1c2ccccc2NC(c2cc(Cl)cc(Cl)c2O)N1Cc1cccnc1 (stereo not drawn) was read as BJeLR lethal 3, Sa ugtP lethal 5, Bead autofluor 3802, RN4220 kill 13, Mtb hypoxia rep 1, PrP 5UTR inh -26 and Mtb hypoxia rep growth 9.
Screening Cc1ccc(C(=O)Nc2ccc(C(=O)N3CCCCC3)cc2)cc1 returned BJeLR lethal 0, Sa ugtP lethal 7, Bead autofluor 1979, RN4220 kill 2.4, Mtb hypoxia rep 9, PrP 5UTR inh -18 and Mtb hypoxia rep growth 11.
Screening O=c1[nH]c(=S)[nH]cc1Oc1ccc(Cl)cc1Cl returned BJeLR lethal 18, Sa ugtP lethal -4, Bead autofluor 3346, RN4220 kill 4.0, Mtb hypoxia rep 6, PrP 5UTR inh 12 and Mtb hypoxia rep growth 1.
Screening COc1ccc(NC(=O)CSc2ccc3nnc(-c4cccnc4)n3n2)cc1 returned BJeLR lethal -8, Sa ugtP lethal 3, Bead autofluor 4389, RN4220 kill 3.0, Mtb hypoxia rep 8, PrP 5UTR inh -6 and Mtb hypoxia rep growth 13.
O=C(Nc1ccc([N+](=O)[O-])cc1)Nc1nc(-c2ccc(Cl)s2)cs1 was read as BJeLR lethal 40, Sa ugtP lethal 97*, Bead autofluor 2494, RN4220 kill 97*, Mtb hypoxia rep 3, PrP 5UTR inh -18 and Mtb hypoxia rep growth 2.
For CCc1noc(C)c1C(=O)N1CC(C)SC1=Nc1ccc(Cl)cc1 (stereo not drawn) the results were Sa ugtP lethal 0, Bead autofluor 5250, RN4220 kill -2.9, Mtb hypoxia rep 12, PrP 5UTR inh -22 and Mtb hypoxia rep growth 3.
Screening Cc1cc(C)n(-c2ccn(Cc3ccc(Cl)cc3Cl)c(=O)n2)n1 returned BJeLR lethal -2, Sa ugtP lethal -14, Bead autofluor 23685*, RN4220 kill -7.0, Mtb hypoxia rep -16, PrP 5UTR inh -15 and Mtb hypoxia rep growth -1.
Screening O=c1oc2ccccc2nc1/C=C(\O)c1ccccc1 returned BJeLR lethal 4, Sa ugtP lethal -3, Bead autofluor 5679, RN4220 kill 4.7, Mtb hypoxia rep 46* and Mtb hypoxia rep growth 27*.
For COc1ccc(CCN(C)CCC(=O)Nc2cccc(C)c2)cc1OC the results were BJeLR lethal -10, Sa ugtP lethal 5, RN4220 kill 0.2, Mtb hypoxia rep -15, PrP 5UTR inh -15 and Mtb hypoxia rep growth -31.
For CCN(CC)C(=O)C1CCN(Cc2cn(C)nc2-c2ccc(Oc3ccccc3)cc2)CC1 the results were BJeLR lethal 3, Sa ugtP lethal 5, Bead autofluor 2232, RN4220 kill 2.0, Mtb hypoxia rep 14, PrP 5UTR inh -14 and Mtb hypoxia rep growth 2.
For O=C(CC(Cc1ccccc1)C(=O)O)NCCc1ccc2c(c1)OCO2 (stereo not drawn) the results were BJeLR lethal -6, Sa ugtP lethal 4, Bead autofluor inconclusive, RN4220 kill 2.8, Mtb hypoxia rep 5, PrP 5UTR inh -19 and Mtb hypoxia rep growth 6.
Screening O=C(Nc1ccc(Cl)cn1)c1ccc(-c2cc(Cl)ccc2Cl)o1 returned BJeLR lethal 3, Sa ugtP lethal -29, Bead autofluor 8965, RN4220 kill 5.2, Mtb hypoxia rep -7, PrP 5UTR inh -64 and Mtb hypoxia rep growth -6.
`Cc1ccc([N+](=O)[O-])cc1-c1ccc(C=Nn2nnnc2N)o1` gave Sa ugtP lethal -5, RN4220 kill 5.8, Mtb hypoxia rep -19 and Mtb hypoxia rep growth -13.
`Cc1ccc(Nc2cc(C)nn2-c2nc(C)cc(C)n2)cc1` gave BJeLR lethal -2, Sa ugtP lethal -9, Bead autofluor 4948, RN4220 kill 7.3 and PrP 5UTR inh -11.
Screening O=[N+]([O-])c1cn(Cc2ccccc2)cn1 returned BJeLR lethal -4, Sa ugtP lethal 3, Bead autofluor 2779, RN4220 kill 1.9, Mtb hypoxia rep 6, PrP 5UTR inh -6 and Mtb hypoxia rep growth 0.
Screening Cc1cc(C)cc(C(=O)NCC(=O)OCC(=O)NCC(F)(F)F)c1 returned BJeLR lethal 3, Sa ugtP lethal 0, Bead autofluor 3200, RN4220 kill 1.4, Mtb hypoxia rep 11, PrP 5UTR inh -19 and Mtb hypoxia rep growth 12.
Cc1ccc(OCC(=O)OC(C)C(=O)NC2CCCCC2C)cc1C (stereo not drawn) was read as Sa ugtP lethal 9, Bead autofluor 2955, RN4220 kill 8.8, Mtb hypoxia rep -6, PrP 5UTR inh -9 and Mtb hypoxia rep growth -8.
For Cc1ccc(C(=O)OCC(=O)Nc2cc(C(C)(C)C)nn2-c2ccccc2)c(O)c1 the results were BJeLR lethal -4, Sa ugtP lethal 11, Bead autofluor inconclusive, RN4220 kill 1.1, Mtb hypoxia rep 7, PrP 5UTR inh -1 and Mtb hypoxia rep growth 0.
`O=C(NN=C1CCSC1)c1cc(Cl)ccc1O` gave Sa ugtP lethal 5, RN4220 kill 11, Mtb hypoxia rep -12 and Mtb hypoxia rep growth 0.
`COc1ccc(N2CCN(Cc3nc4sc(C)c(C)c4c(=O)[nH]3)CC2)cc1` gave BJeLR lethal 8, Sa ugtP lethal 0, Bead autofluor 4378, RN4220 kill -1.4, Mtb hypoxia rep 8, PrP 5UTR inh -18 and Mtb hypoxia rep growth -3.
Screening Cn1c(SCC(=O)N2CCCCC2)nc2cccnc21 returned BJeLR lethal -14, Sa ugtP lethal -3, Bead autofluor 3067, RN4220 kill -1.9 and PrP 5UTR inh -20.
For COc1ccccc1N1CCN(C(c2ccccc2Cl)c2nnnn2C(C)(C)C)CC1 (stereo not drawn) the results were Sa ugtP lethal 1, Bead autofluor 4888, RN4220 kill -0.4 and PrP 5UTR inh -5.
For O=c1[nH]c2ccccc2nc1-c1cccs1 the results were BJeLR lethal 4, Sa ugtP lethal -4, Bead autofluor 6489, RN4220 kill 8.4, Mtb hypoxia rep 4, PrP 5UTR inh -56 and Mtb hypoxia rep growth 6.
Screening Cc1ccc(SCC(=O)Nc2nnc(C(C)(C)C)s2)cc1 returned BJeLR lethal -6, Sa ugtP lethal 8, Bead autofluor 3017, RN4220 kill 0.7, Mtb hypoxia rep 7, PrP 5UTR inh -27 and Mtb hypoxia rep growth -1.
For Cn1c(=O)c2cn(-c3cccc4ccccc34)cc2n(C)c1=O the results were BJeLR lethal -5, Sa ugtP lethal 1, Bead autofluor 3306, RN4220 kill 0.6, Mtb hypoxia rep 6, PrP 5UTR inh -8 and Mtb hypoxia rep growth 17.
For COc1cc(OC)cc(C(=O)NC(C(=O)NCCN(C)C)C23CC4CC(CC(C4)C2)C3)c1 (stereo not drawn) the results were BJeLR lethal -18, Sa ugtP lethal -9, Bead autofluor 4652, RN4220 kill -1.5, Mtb hypoxia rep 13, PrP 5UTR inh -17 and Mtb hypoxia rep growth 15.
Screening CCc1ccc(NC(=O)/C(C#N)=C/c2cn(CC(=O)O)c3ccccc23)cc1 returned BJeLR lethal -4, Sa ugtP lethal 2, Bead autofluor 4765, RN4220 kill 3.9, Mtb hypoxia rep 6, PrP 5UTR inh -12 and Mtb hypoxia rep growth 7.
Screening CC(=O)NC(Cc1ccc(F)cc1)C(=O)NC1CCN(S(=O)(=O)c2ccccc2)CC1 (stereo not drawn) returned BJeLR lethal 3, Sa ugtP lethal 9, Bead autofluor 3651, RN4220 kill 4.0, Mtb hypoxia rep -1, PrP 5UTR inh -13 and Mtb hypoxia rep growth -1.
For CCC1(C(=O)c2ccccc2)C2c3ccccc3OC(=O)C21C(C)=O (stereo not drawn) the results were BJeLR lethal -3, Sa ugtP lethal 7, RN4220 kill 2.2, Mtb hypoxia rep 7 and Mtb hypoxia rep growth 14.
`CCc1noc(C)c1C(=O)OC(C)C(=O)NCc1ccc(OC)cc1` (stereo not drawn) gave Sa ugtP lethal 9, Bead autofluor 3541, RN4220 kill 6.9, Mtb hypoxia rep 6, PrP 5UTR inh -16 and Mtb hypoxia rep growth 4.
`Cc1ccc(S(=O)(=O)N2CCN(C)CC2)cc1C(=O)NC1CCCCC1` gave BJeLR lethal 1, Sa ugtP lethal 2, Bead autofluor 4414, RN4220 kill 2.0, Mtb hypoxia rep -3, PrP 5UTR inh -22 and Mtb hypoxia rep growth -7.
O=C1COc2ccc(S(=O)(=O)N3CCN(c4cccc(C(F)(F)F)c4)CC3)cc2N1 was read as BJeLR lethal -2, Sa ugtP lethal -4, Bead autofluor 5546, RN4220 kill -1.2, Mtb hypoxia rep -12, PrP 5UTR inh -19 and Mtb hypoxia rep growth 6.
For Cc1onc(-c2ccccc2)c1C(=O)NC(=S)NNC(=O)c1ccc(O)cc1O the results were BJeLR lethal -36, Sa ugtP lethal -22, Bead autofluor 2575, RN4220 kill 47, Mtb hypoxia rep 11, PrP 5UTR inh -7 and Mtb hypoxia rep growth 0.
Screening CCOc1cc(/C=N/NC(=O)c2c(-c3ccccc3)noc2C)ccc1O returned BJeLR lethal 2, Bead autofluor 2684 and PrP 5UTR inh -19.
`CC(C)c1nc(Cl)c(C#N)c2c1CCCC2` gave BJeLR lethal -11, Sa ugtP lethal 10, Bead autofluor 1886, RN4220 kill 7.6, Mtb hypoxia rep 10, PrP 5UTR inh 17 and Mtb hypoxia rep growth 2.

Not a retest: 6 of the compounds above.
`CCc1noc(C)c1C(=O)OC(C)C(=O)NCc1ccc(OC)cc1` (stereo not drawn) gave Sa ugtP lethal 9, Bead autofluor 3541, RN4220 kill 6.9, Mtb hypoxia rep 6, PrP 5UTR inh -16 and Mtb hypoxia rep growth 4.
`Cc1ccc(S(=O)(=O)N2CCN(C)CC2)cc1C(=O)NC1CCCCC1` gave BJeLR lethal 1, Sa ugtP lethal 2, Bead autofluor 4414, RN4220 kill 2.0, Mtb hypoxia rep -3, PrP 5UTR inh -22 and Mtb hypoxia rep growth -7.
O=C1COc2ccc(S(=O)(=O)N3CCN(c4cccc(C(F)(F)F)c4)CC3)cc2N1 was read as BJeLR lethal -2, Sa ugtP lethal -4, Bead autofluor 5546, RN4220 kill -1.2, Mtb hypoxia rep -12, PrP 5UTR inh -19 and Mtb hypoxia rep growth 6.
For Cc1onc(-c2ccccc2)c1C(=O)NC(=S)NNC(=O)c1ccc(O)cc1O the results were BJeLR lethal -36, Sa ugtP lethal -22, Bead autofluor 2575, RN4220 kill 47, Mtb hypoxia rep 11, PrP 5UTR inh -7 and Mtb hypoxia rep growth 0.
Screening CCOc1cc(/C=N/NC(=O)c2c(-c3ccccc3)noc2C)ccc1O returned BJeLR lethal 2, Bead autofluor 2684 and PrP 5UTR inh -19.
`CC(C)c1nc(Cl)c(C#N)c2c1CCCC2` gave BJeLR lethal -11, Sa ugtP lethal 10, Bead autofluor 1886, RN4220 kill 7.6, Mtb hypoxia rep 10, PrP 5UTR inh 17 and Mtb hypoxia rep growth 2.
